Env fusion inh: HIV envelope-mediated fusion inhibition. HeLa-JRFL Env/CEM21 cell fusion, luciferase. inhibition, % at 12.3 µM. actives 1.1% (n = 360,000). AID 651610;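 active = mean replicate inhibition score of at least 50 and every replicate individually at or above 50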;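 also: 0% = plate neutral controls and 100% = maraviroc near 300 nM; one replicate is shown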
Yeast UUG start: alters start codon recognition fidelity in yeast; S. cerevisiae UUG-firefly luciferase reporter, luminescence/redox ratio; activity score, % at 18.7 µM; actives 0.13% (n = 350,000); AID 602363;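 active = replicate mean at a twofold rise or more, about +100% in these data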;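 also: firefly luciferase made from a UUG start codon reports start codon fidelity; reporter light over untreated wells divided by growth signal over untreated wells; some hits fall short of that in this replicate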
PABP polyA inh: PABP-poly(A) binding inhibition; actives 1% (n = 290,000); AID 2014; P11940; PABP-poly(A) RNA binding, fluorescence polarization; inhibition, % at 35 µM;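 active = 50% or more with normal probe brightness, or confirmed in later tests; about a fifth of its hits are not listed in these tables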;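 also: calls also rest on retests at 20 µM and on dose response follow-up; controls were probe without protein and protein plus probe with vehicle; some compounds called inactive have numbers as strong as hits; many hits fall short of the cut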
Rce1 inhib: yeast Ras-converting enzyme inhibition. Q03530. yeast membranes, quenched prenylated peptide cleavage fluorescence. actives 0.27% (n = 290,000). calls only. AID 2563;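 active = fall in fluorescence gain of 50% or more versus controls, with final raw signal at or below 3038400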;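 also: plate controls were neutral control wells for no effect and wells lacking membranes for full effect; tested at 10 µM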
Target sequence (Q03530 whole entry, looked up): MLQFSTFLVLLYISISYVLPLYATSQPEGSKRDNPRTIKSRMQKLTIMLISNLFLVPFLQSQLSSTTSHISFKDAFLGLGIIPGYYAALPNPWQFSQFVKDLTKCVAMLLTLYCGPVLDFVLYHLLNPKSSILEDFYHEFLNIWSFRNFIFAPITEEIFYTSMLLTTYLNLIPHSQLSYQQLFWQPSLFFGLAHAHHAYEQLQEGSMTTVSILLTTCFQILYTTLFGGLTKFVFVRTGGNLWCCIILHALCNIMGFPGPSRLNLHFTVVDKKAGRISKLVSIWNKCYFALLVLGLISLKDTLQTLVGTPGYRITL
CSC inhib: blocks cancer stem cells. cancer stem cell-like cells viability, luminescence. inhibition, % at 7.5 µM. actives 1.1% (n = 300,000);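 active = mean at 75% or more and at least half the replicates too; tested in HMLE shEcad cells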;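 also: 0% = median of negative and 100% = median of positive control wells; the first replicate is given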
eIF4H FP inh: inhibitors of RNA binding by human eIF4H; Q15056; eIF4H fluorescence polarization binding assay; inhibition, % at 35 µM; actives 0.94% (n = 290,000); AID 2012;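 active = 50% or more with normal probe brightness, or confirmed in later tests; about a fifth of its hits are not listed in these tables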;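 also: calls also rest on retests at 20 µM and on dose response follow-up; 0% = protein and probe with vehicle and 100% = probe without protein; strong numbers were not always called active; many hits fall short of the cut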
MT1-MMP act inh: MT1-MMP (human) activation inhibition; AID 651647; P50281; HT1080 RFP-PRO-GFP cells, GFP/RFP ratio fluorescence, overnight; percent of plate control window, DMSO zero; actives 0.061% (n = 360,000); GFP/RFP ratio change, % at 20 µM;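 active = GFP/RFP ratio change of at least 30% with cell ATP level not reduced by more than half and red fluorescence within 50% of control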; also: strong numbers were not always called active
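Assay system: HT1080 RFP-PRO-GFP cells. Benchmarks: DMSO vehicle wells and RFP-L50D-GFP reporter cell wells. Times: overnight cell settling, then overnight compound exposure, 37 °C, 5% CO2. Compound: 20 µM single dose, 1% DMSO. Read-out basis: GFP/RFP fluorescence ratio.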
MT1-MMP act inh RFP: recorded beside MT1-MMP act inh, whose call it bears; RFP signal change, %; measured here: RFP expression control read;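 0 = vehicle wells; hits needed this value within 50% of zero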
Starred values were filed as active, the others as inactive; i = inactive; x = no result given. A portion of the library, so the mix of outcomes need not match the whole.

SMILES	Env fusion inh	Yeast UUG start	PABP polyA inh	Rce1 inhib	CSC inhib	eIF4H FP inh	MT1-MMP act inh	MT1-MMP act inh RFP
CC(C)c1nnc(NC(=O)C2CCN(S(=O)(=O)c3ccc(-n4cnnn4)cc3)CC2)s1	0	-12	-4	i	8	-3	-1	-4
FC(F)(F)c1nnc2sc(-c3ccco3)nn12	-99	-27	-1	i	-4	-5	-1	3
COc1ccccc1CNC(=O)N[C@@H](Cc1ccccc1)C(=O)O	x	-12	10	i	-13	-12	3	5
Brc1ccc(-c2csc(N3CCOCC3)n2)cc1	-87	x	0	i	-8	0	1	-5
O=c1c2ccccc2nnn1CSc1nc2ccccc2c(=O)n1CCCO	15	-12	-13	i	-11	-8	1	5
Cc1ccc(N2C(=O)C3C4CCC(O4)C3C2=O)c(OC(F)F)c1 (stereo not drawn)	5	-16	x	x	x	x	-2	4
Cc1cc(=O)oc2cc(OCC(=O)Nc3ccccc3C(N)=O)c(Cl)cc12	-5	-22	7	i	-2	-7	1	2
Cc1ccc(C(=O)CSc2nnc(-c3ccco3)n2Cc2ccccc2)cc1	-62	-36	-14	i	9	-11	6	-6
Cc1ccc(N(C)S(=O)(=O)c2cccc(C(=O)N3CCN(Cc4ccccc4)CC3)c2)cc1	x	-20	x	x	-1	x	10	-7
Cc1ccc(C)c(N(CC(=O)Nc2ccccc2C(=O)NCc2ccco2)S(=O)(=O)c2ccccc2)c1	9	-6	11	i	-3	-3	-3	-3
Cc1ccc(OCC(=O)NNC(=S)NCc2ccccc2)cc1	23	x	-9	i	16	10	-4	1
O=C(O)C1CCCCN1S(=O)(=O)c1ccc(Cl)s1 (stereo not drawn)	-9	-22	-9	i	11	-4	0	8
COC(=O)c1nnn(CC(=O)Nc2ccc(C)c(F)c2)c1C(=O)OC	-8	-32	14	x	-13	5	-1	4
CN(CCO)C(=O)C(c1ccccc1)c1ccccc1	9	x	-2	i	-17	-4	2	2
CC1(C)CC(=O)C2=C(C1)N1CCCCC1CC2=O (stereo not drawn)	-32	-24	1	i	-2	13	-2	3
C[C@@H](C(=O)Nc1nccs1)N1C(=O)C2CC=CCC2C1=O (stereo partly drawn)	-15	6	x	x	-2	x	-1	1
CCOC(=O)C1(Cc2ccccc2)CCCN(CCCn2cccn2)C1 (stereo not drawn)	5	x	-9	i	-4	5	-2	0
COc1ccc(CCN2C(=O)CC(N3CCC(C(N)=O)CC3)C2=O)cc1OC (stereo not drawn)	-4	x	15	i	-11	2	0	1
Clc1cccc(-c2ccc(CNCc3ccccn3)o2)c1	3	-33	3	i	2	11	1	2
COc1cccc(NC(=O)c2cc3c(=O)n4ccccc4nc3n(CC(C)C)c2=N)c1	-20	-23	12	i	5	9	-6	-3
COc1ccc(NS(=O)(=O)c2ccc3c(c2)N(C(C)=O)CC(C)S3)c(OC)c1 (stereo not drawn)	2	-12	-5	i	-15	-14	6	-9
CCN(CC(=O)NCc1ccc(Cl)cc1)C(=O)CCC(=O)c1ccc(F)cc1	-2	x	x	i	-11	x	-1	-1
CC1=NCCN1S(=O)(=O)c1cccc([N+](=O)[O-])c1	9	9	3	i	-4	1	-4	3
O=C(Nc1ccc2c(c1)OCCO2)c1cnc2n(c1=O)CCS2	-84	-3	3	i	4	7	-3	1
Cc1ccccc1CN(C)C(=O)[C@H](Cc1ccccc1)NC(=O)c1ccco1	6	-20	x	x	x	x	-7	-1
Cc1c(CC(=O)NCC(=O)NCC(=O)O)c(=O)oc2cc3oc4c(c3cc12)CCCC4	-2	-18	22	i	-6	0	5	3
CS(=O)(=O)N(CC(=O)Nc1ccc2c(c1)OCO2)c1ccc(Cl)cc1	-119	11	0	i	-24	10	4	2
Cc1sc2ncnc(N3CCN(c4ncccn4)CC3)c2c1C	x	11	4	i	0	-6	-6	-7
CC(C)C(NS(=O)(=O)c1ccc2c(c1)C(C)(C)C(=O)N2C)C(=O)NCc1ccccc1Cl (stereo not drawn)	62*	-4	-20	i	-8	-11	-2	5
Cc1cc(C)nc(CCNC(=O)CC2C(=O)NCCN2Cc2ccc(F)cc2Cl)n1 (stereo not drawn)	x	-5	18	i	-12	16	-6	0
Cc1[nH]n(-c2ccccc2)c(=O)c1C=NCc1ccncc1	2	-11	17	i	-1	1	1	2
CCOC(=O)c1nc(Nc2ccccc2)c2ccccc2n1	-46	-14	-8	i	-9	-6	7	-1
CCN(CC(=O)Nc1ccc2c(c1)OCCO2)Cc1cc(=O)oc2c(C)c(C)ccc12	x	-6	7	i	-2	1	-1	-2
COC(=O)c1cccc(NC(=O)CCc2cc(OC)c(OC)c(OC)c2)c1	-9	x	4	i	-6	-9	3	3
CCOC(=O)c1ccc(NC(=O)C(=O)NCC2(c3ccc(OC)cc3)CCOCC2)cc1	7	-1	8	i	6	1	3	-8
CC(=O)Nc1ccc(N2CCN(C(=O)c3cccs3)CC2)cc1	38	x	1	i	-7	-4	-1	2
CN(CC(=O)Nc1ccc2c(c1)OCO2)S(=O)(=O)c1ccc(F)cc1	-8	1	16	i	-6	1	2	3
COC(=O)Cn1c(=NC(=O)C2COc3ccccc3O2)sc2cc(S(N)(=O)=O)ccc21 (stereo not drawn)	-14	4	-1	i	-10	6	-3	-2
COc1ccccc1NS(=O)(=O)c1ccc2oc(N)nc2c1	0	-11	11	i	2	10	-4	1
O=C(O)c1ccc(NC(=O)c2ccc3c(c2)C(=O)N(CC2CCCO2)C3=O)cc1 (stereo not drawn)	-5	-11	6	i	-4	-2	-1	1

Exported with two lines to a compound: three of the compounds above.
Values run as follows: Env fusion inh	Yeast UUG start	PABP polyA inh	Rce1 inhib	CSC inhib	eIF4H FP inh	MT1-MMP act inh	MT1-MMP act inh RFP
Cc1[nH]n(-c2ccccc2)c(=O)c1C=NCc1ccncc1
    2	-11	17	i	-1	1	1	2
CCOC(=O)c1nc(Nc2ccccc2)c2ccccc2n1
    -46	-14	-8	i	-9	-6	7	-1
CCN(CC(=O)Nc1ccc2c(c1)OCCO2)Cc1cc(=O)oc2c(C)c(C)ccc12
    x	-6	7	i	-2	1	-1	-2

Additional records follow:
SMILES	Env fusion inh	Yeast UUG start	PABP polyA inh	Rce1 inhib	CSC inhib	eIF4H FP inh	MT1-MMP act inh	MT1-MMP act inh RFP
CCCOc1ccc(C(O)CCNC(CC(=O)O)c2ccccc2)cc1 (stereo not drawn)	-2	x	2	i	-7	3	4	4
Nc1ncnc2c1ncn2[C@@H]1O[C@H](C(=O)N[C@H]2c3ccccc3C[C@H]2O)[C@@H](O)[C@H]1O	-1	-7	x	x	x	x	1	4
C/C(=N\NC(=O)c1c(Cl)c(C)nn1C)c1cccc(NC(=O)COc2ccccc2)c1	-66	-12	-20	i	x	0	4	0
COC(=O)Nc1ccc(S(=O)(=O)N2CCCC(C(=O)NCC3CCCO3)C2)cc1 (stereo not drawn)	x	-16	x	x	-12	x	-1	2
CN(CC(=O)O/N=C(\N)c1ccccn1)S(=O)(=O)c1ccc(Br)cc1	x	-13	6	i	7	10	7	3
N#CCC(=O)Nc1ccc(C(=O)OC(C(=O)Nc2ccc([N+](=O)[O-])cc2Br)c2ccccc2)cc1 (stereo not drawn)	4	-3	x	x	x	x	4	-5
Cc1ccc2nsnc2c1S(=O)(=O)N(Cc1ccco1)Cc1cc2cccc(C)c2[nH]c1=O	x	x	8	i	33	0	-7	-2
CC(C)c1ccccc1NC(=O)Cn1c(-c2ccccc2Cl)nc2ccccc21	-43	-14	-16	i	x	10	0	4
O=C(c1ncn(Cc2ccccc2)c1C(=O)N1CCN(c2ccccc2)CC1)N1CCN(c2ccccc2)CC1	-8	1	x	x	9	x	0	0
CC(C)C[C@H](NC(=O)c1nc[nH]c1C(=O)N(C)Cc1ccccc1)C(=O)OCc1ccccc1	20	-7	9	i	-15	13	5	1
O=C(CN(Cc1ccccc1)C(=O)CCl)c1cccc(Br)c1	-1	0	x	x	16	x	-15	-18
CN(C)c1ccc(NC(=O)CCCc2ccccc2)cc1	-81	-30	8	x	-11	6	-10	1
CCNC(=S)NS(=O)(=O)c1ccccc1	x	x	5	i	-6	-4	2	12
CN(Cc1ccccc1)C(=O)c1ccc2nc([C@@H]3O[C@H](CO)[C@H](O)[C@H](O)[C@H]3O)[nH]c2c1	7	-11	x	x	x	x	10	3
Cc1cc(=O)cc(C)[nH]1	-14	-6	2	i	-8	-4	7	7
CCc1nnc(NC(=O)CSc2nc3cccnc3n2Cc2ccccc2)s1	-12	6	6	i	-8	-4	6	3
O=C(c1ccc(S(=O)(=O)NCc2ccco2)cc1)N1CCCC(C(F)(F)F)C1 (stereo not drawn)	15	-1	x	i	-7	x	0	-7
CN(C)Cc1csc(NC(=O)Nc2ccccc2-c2ccccc2)n1	-13	-5	x	x	x	x	-5	0
CC(=O)c1ccc(S(=O)(=O)N2CCN(c3nn(C)c(=O)n(C)c3=O)CC2)cc1	0	-7	x	x	x	x	-1	2
COc1ccc([C@H]2CC(=O)C=C(c3ccc(OC)nc3)C2)cc1	-14	0	x	x	-13	x	9	1
O=C1c2ccccc2C(=O)N1CCN1CCCCC1	x	x	-7	i	-6	-3	2	5
CCc1ccc(OCC(=O)N/N=C(\C)c2ccc(OC(F)F)cc2)cc1	6	x	17	i	4	-1	3	1
CN(C)S(=O)(=O)c1cc(NC(=O)CNCc2ccccc2)ccc1Cl	-9	-18	14	i	-11	-3	0	-4
CNC(=O)Nc1ccc(C2SCCS2)cc1	-7	x	1	i	6	-2	0	1
O=C(C1CCCN(S(=O)(=O)c2cccnc2)C1)N1CCn2c1nc1ccccc12 (stereo not drawn)	-14	2	-23	i	-18	-7	10	1
Cc1ccc(C)c(NS(=O)(=O)c2c(C)nn(C)c2C)c1	-28	-21	-2	i	-16	-2	-3	2
O=C(CN1CCN(c2ccccn2)CC1)Nc1ccc(F)cc1	x	-3	8	i	-12	3	2	0
COc1ccc(S(=O)(=O)NCCN2CCOCC2)c(C)c1C	-13	-6	8	x	-2	0	4	0
N#CC(Cc1ccc(OC(F)F)cc1)c1nc2ccccc2[nH]1 (stereo not drawn)	-28	-26	-21	i	0	-5	-4	-1
Cc1ccc(NC(=O)c2cccc(Cl)c2)nc1	x	1	-7	x	9	-3	2	3
Cc1nc2sc3c(O)cc(=O)[nH]c3c2c(C)c1C	x	-8	3	i	x	-2	1	-2
CCn1c(SCC(N)=O)nnc1C(C)C	-9	x	-8	i	-6	7	-1	3
CC(C)(C)NC(=O)CN1C(=O)/C(=C/c2ccccc2)SC1=S	6	x	-2	i	x	11	4	4
CC(=O)CCC(=O)NCCc1ccccc1F	x	4	2	i	x	-15	3	5
COc1ccccc1CC(=O)NC12CC3CC(CC(C3)C1)C2	-16	-10	5	i	-1	18	-1	-2
O=C(NC1CCC1)C1CCC(=O)N(Cc2cccc(F)c2)C1 (stereo not drawn)	-4	-13	-6	i	-8	-4	-1	3
CC(Cc1ccccc1)C(=O)N1CCN(C)CC1 (stereo not drawn)	-1	-8	-2	i	10	-3	-2	1
CCOC(=O)C1=C(C)N(CCCC(=O)O)C(=O)NC1c1ccccc1 (stereo not drawn)	-13	-24	x	i	-4	x	4	2
O=C(NCC(O)c1ccccc1)c1cccc(S(=O)(=O)N2CCOCC2)c1 (stereo not drawn)	x	0	-4	i	x	5	1	3
CN1CCN(Cc2c(O)ccc3occ(C(=O)c4ccccc4)c23)CC1	-80	-19	10	i	6	13	-20	-5
CC(C)n1nc(C(=O)Nc2ccc(-n3cnnn3)cc2)c2ccccc2c1=O	2	-21	x	x	-2	x	4	8
Nn1c(COc2ccccc2)nnc1SC(F)F	-32	-15	2	i	-6	-12	-5	-2
Cc1c(NC(=O)CN2C(=O)NC(C)(c3ccccc3Cl)C2=O)c(=O)n(-c2ccccc2)n1C (stereo not drawn)	x	x	-2	i	-9	2	5	7
